Assay outcomes as filed in PubChem BioAssay.
HNF4A DNA FP = change in binding of human HNF4 alpha to DNA; activity change, % at 10 µM; AID 1224865; HNF4a-FITC DNA binding, fluorescence polarization, 1 h; 360,000 compounds, 0.3% hits; in the data active = activity change above about 30%, passing the limit was not always enough;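 note: controls were the assay level and a saturating level of protein; the project sought stronger binding though the title names inhibitors; some compounds called inactive have numbers as strong as hits; positive values seem to mean higher polarization but the record does not say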
ALR H2O2 inh = human ALR oxidase inhibition via reduced H2O2; P55789; purified ALR, DTT oxidation, H2O2 HRP-luminol luminescence; inhibition, % (no concentration beside the values); 290,000 compounds, 3.8% hits;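 active = mean and each replicate at 75% or more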;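 note: stock transfer was 7.5 nL into about 7.5 µL; 0% = neutral wells and 100% = wells with inactivated enzyme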
LANA-H2B inh = blocks KSHV LANA binding to histone H2A/H2B; Q9QR71; cell-free LANA-H2A/H2B peptide, fluorescence polarization; inhibition, % (test concentration not listed); 320,000 compounds, 0.6% hits; in the data active = inhibition mostly above about 10%, no sharp cut-off; inactive = mostly below about 6.7%;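 note: stock transfer was 7.5 nL into about 10 µL; 0% = median of vehicle wells and 100% = median of positive control wells; one replicate is shown; the record names a cut of 25% in any replicate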
UCH37 DUB inh = inhibitors of human deubiquitinating enzyme UCH37; Q9Y5K5; purified proteasome/UCH37, Ub-AMC cleavage fluorescence; inhibition, % (no concentration beside the values); 330,000 compounds, 0.33% hits; AID 588478;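 active = mean of two replicates above 20%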;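 note: 0% = compound-free wells with enzyme and 100% = wells lacking proteasome; stock transfer was 100 nL into about 20 µL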
Target sequence (Q9Y5K5 whole entry, looked up): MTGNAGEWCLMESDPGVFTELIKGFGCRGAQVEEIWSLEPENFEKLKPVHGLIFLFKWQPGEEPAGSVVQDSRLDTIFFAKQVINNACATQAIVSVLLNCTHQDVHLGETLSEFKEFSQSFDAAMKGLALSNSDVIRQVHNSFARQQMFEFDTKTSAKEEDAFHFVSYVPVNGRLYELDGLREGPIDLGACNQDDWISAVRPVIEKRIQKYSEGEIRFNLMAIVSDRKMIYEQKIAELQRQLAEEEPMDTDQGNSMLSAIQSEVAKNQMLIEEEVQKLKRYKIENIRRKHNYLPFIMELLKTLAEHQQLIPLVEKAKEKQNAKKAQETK
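Schedule: 30 min plus 25 min, room temperature / Material: human UCH37 within purified proteasomes / Technique: AMC fluorescence intensity at 355/460 nm / Buffer or medium: pH 7.4 Tris-HCl (50 mM) with ovalbumin, ATP-MgCl2, DTT / Controls: wells without proteasome as full block, compound-free enzyme plus substrate as uninhibited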
FGF22 binding = shifts melting point of recombinant human FGF22 | Q9HCT0 | 340,000 compounds, 1.5% hits | calls only at 9.99 µM | recombinant FGF22 thermal shift, SYPRO orange fluorescence; percent of sucrose octasulfate shift, DMSO zero;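 active = melting point raised past a set limit in the mean and every replicate; three in four hits are not shown here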
Target sequence (Q9HCT0 whole entry, looked up): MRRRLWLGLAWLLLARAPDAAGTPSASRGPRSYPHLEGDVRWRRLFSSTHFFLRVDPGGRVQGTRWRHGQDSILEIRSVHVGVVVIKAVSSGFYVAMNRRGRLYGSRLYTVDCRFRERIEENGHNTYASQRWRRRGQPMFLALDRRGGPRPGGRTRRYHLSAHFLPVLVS
Beta2AR agonist = human beta-2 adrenergic receptor agonism by FAP; P07550; response, % (test concentration not listed); 340,000 compounds, 0.43% hits; Am2.2-beta2AR cells, FAP receptor internalization, flow cytometry; reference of the scale not given here; AID 504454;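 active = response above a set limit, near 3 SD of response in nonfluorescent compounds, cut at about 42% in these data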;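 note: stock transfer was 100 nL into about 11 µL; a reference agonist was the positive control; negative values mostly stem from fluorescent compounds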
Target sequence (P07550 whole entry, looked up): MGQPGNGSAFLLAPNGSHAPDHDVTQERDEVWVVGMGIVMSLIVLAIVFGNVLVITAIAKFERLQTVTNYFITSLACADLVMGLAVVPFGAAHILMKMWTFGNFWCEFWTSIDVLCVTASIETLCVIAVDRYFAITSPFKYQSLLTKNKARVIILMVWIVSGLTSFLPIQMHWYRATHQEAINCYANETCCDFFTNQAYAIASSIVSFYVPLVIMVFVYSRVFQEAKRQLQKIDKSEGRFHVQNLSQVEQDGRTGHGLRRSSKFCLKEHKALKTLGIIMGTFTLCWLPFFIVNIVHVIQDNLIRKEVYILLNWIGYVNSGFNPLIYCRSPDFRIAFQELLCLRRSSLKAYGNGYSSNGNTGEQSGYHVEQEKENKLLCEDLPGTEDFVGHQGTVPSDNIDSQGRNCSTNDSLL
Ecoli growth = blocks Escherichia coli growth. OD600, 23 h; hits give low values. OD600 absorbance (test concentration not listed). 330,000 compounds, 0.21% hits;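 active = OD600 absorbance below the run mean of sample wells minus 3.6 SD, in any replicate, cut at about 0.56 in these data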;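 note: stock transfer was 300 nL into about 60 µL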
* marks the source's active call; other numbers are inactive results; i = inactive; nt = not tested or not shown; + = active, no number. Some of the compounds tested; the hit share may differ from the screen's.

LANA-H2B inh	ALR H2O2 inh	FGF22 binding	Ecoli growth	Beta2AR agonist	HNF4A DNA FP	UCH37 DUB inh	smiles
3.0	-0.6	i	0.698	-4.0	2.3	-2.1	COc1ccc(C(CNC(=O)CCNS(=O)(=O)c2ccc(C)cc2)N2CCOCC2)cc1 (stereo unspecified)
2.4	nt	i	0.771	1.3	-4.0	6.9	COc1ccc2[nH]c(O)c(N=NC(=O)c3ccc(NS(=O)(=O)c4cccs4)cc3)c2c1
-2.3	9.9	i	nt	7.5	-0.4	nt	CCNC(=S)N/N=C/c1ccc(C#N)cc1
4.8	-3.9	nt	0.654	-2.9	-2.1	1.6	O=C(Nn1cnnc1)c1ccc([N+](=O)[O-])cc1
5.2	-6.2	nt	0.715	1.4	0.4	2.7	Cc1cccc(C(=O)NCCN2CCCC2)c1
0.2	3.0	nt	0.764	-2.5	-2.4	-72.4	CCOC(=O)c1c(NC(=O)c2cccc(N3C(=O)CCC3=O)c2)sc(C)c1C
3.2	-5.1	nt	0.776	-6.5	1.0	3.0	CN(CP(=O)(O)CCc1ccccc1)S(C)(=O)=O
6.3	-11.7	nt	0.736	4.7	-0.5	4.7	Cc1scc(C(=O)N2CCN(S(C)(=O)=O)CC2)c1-c1ccccc1
3.1	-5.4	i	0.675	-10.1	-5.4	0.0	COc1ccc(CNC(=O)c2ccc(CS(=O)Cc3ccc(Cl)cc3)o2)cc1 (stereo unspecified)
3.1	-2.3	nt	0.75	0.1	2.9	-340.3	COC(=O)C1=CN(Cc2cccs2)C=C(C(=O)OC)C1c1cccc(OC)c1OC
2.1	nt	i	0.694	-1.1	-1.8	3.4	N#Cc1ccccc1S(=O)c1ccccc1C(=O)Nc1ccccc1 (stereo unspecified)
3.2	nt	i	0.643	-5.3	-1.3	5.4	Cc1cc(Cl)ccc1OCCCC(=O)OCC(=O)Nc1cccc(S(N)(=O)=O)c1
-0.2	-6.3	nt	0.651	-4.0	0.0	-9.7	Cc1cccc2cc(CN(Cc3cccnc3)C(=O)c3ccncc3)c(=O)[nH]c12
0.4	-64.3	i	0.699	-1.5	3.0	3.1	O=C(CCSc1ccccc1)Nc1nnc(-c2cccs2)o1
-3.1	-6.3	nt	0.748	32.4	-1.2	-1.3	COC(=O)c1sc2nc[nH]c(=O)c2c1C
-2.0	12.9	nt	0.642	4.4	-5.0	0.1	CSc1ccccc1NC(=O)c1ccoc1C
0.1	-7.6	i	0.721	-3.3	-0.7	0.0	CCn1nc(C)cc1C(=O)NC1CCCc2c1cnn2-c1cc(F)cc(F)c1 (stereo unspecified)
-1.6	0.5	i	nt	3.5	1.8	nt	CC(C)(C)S(=O)(=O)/C(C#N)=N/Nc1ccc(S(N)(=O)=O)cc1
3.9	1.5	i	0.646	-4.1	2.0	-3.6	COC(=O)c1cc(NC(=S)Nc2cc(Cl)cc(Cl)c2)cc(C(=O)OC)c1
-1.4	-7.4	i	0.668	-7.1	-0.7	5.0	O=C(Cc1c[nH]c2ccccc12)NCc1ccc(Cl)cc1Cl
2.5	-10.1	i	0.604	2.9	-2.6	-1.7	CN(C(=O)c1ccc(NC(=O)C2CCCN(C(=O)OC(C)(C)C)C2)cc1)C1CCCCC1 (stereo unspecified)
nt	nt	i	0.673	-2.6	0.3	-1.0	CCN(CC)CCNC(=O)C1(c2ccccc2)CCCCC1
-0.5	-1.6	nt	nt	-2.1	1.1	nt	CCN(CC)S(=O)(=O)c1cccc(C(=O)N/N=C/c2c(C)nn(-c3ccccc3)c2Cl)c1
-0.9	98.5*	i	nt	-5.4	-1.8	nt	C/C(=N\N(Cc1ccccc1)c1ccccc1)c1cccnc1
-4.1	-6.0	i	0.674	-3.1	6.1	2.8	CC1CCN(CC(=O)Nc2cccc(Cl)c2)CC1
0.1	nt	+	0.718	7.6	1.4	3.5	COc1cc([N+](=O)[O-])ccc1NC(=O)Nc1ccc2c(c1)OCCO2
1.2	1.5	i	0.738	4.4	0.4	1.0	O=C(O)c1ccc2c(c1)N(Cc1ccccc1F)C(=O)c1ccccc1S2=O (stereo unspecified)
4.9	0.2	i	nt	-0.6	4.3	nt	CC(C)Cn1c(N)c(/C=N/NC(=O)c2ccc(Cl)cc2)c(=O)n(C)c1=O
0.1	1.7	nt	0.647	3.0	-0.2	-81.1	Cc1ccc(CNC(=O)c2ccccc2N)cc1
0.4	-1.6	i	0.664	2.1	-0.6	3.5	O=S(=O)(c1ccc(-c2ccccc2)cc1)N1CCCC1
3.2	nt	nt	0.701	8.0	1.9	10.5	COc1ccc(/C=C2\Oc3cc(OCC(=O)N4CCC[C@H]4C(=O)O)ccc3C2=O)cc1OC
-6.8	-2.5	i	0.724	-4.4	3.4	2.3	Cc1ccc(Cl)c2c1=NC(=O)C=2c1[nH]c(=S)[nH]c1O
1.8	55.2	nt	0.726	0.5	-0.1	-0.1	COc1ccccc1NCCC(=O)OCC(=O)Nc1ccc(Cl)cn1
0.0	25.1	nt	0.606	22.0	1.8	11.4	O=[N+]([O-])c1ccc(NNC(=S)Nc2ccc(F)cc2)cc1
2.3	-0.4	i	nt	6.2	-2.4	nt	O=C(NC(=S)NNC(=O)c1cc2ccccc2cc1O)c1ccco1
6.8*	33.7	i	0.713	24.3	0.6	4.9	O=C1C=CC(=O)N1c1ccc(N2CCCCC2)cc1
-2.7	-1.5	nt	0.667	6.2	1.3	10.4	O=C(O)c1ccc(NC(CSCc2ccc(F)cc2)C(=O)O)c([N+](=O)[O-])c1 (stereo unspecified)
1.1	-4.8	i	0.668	4.4	-3.7	-0.6	O=C(NCC1CCCO1)c1cccc(C(=O)NCC2CCCO2)c1 (stereo unspecified)
1.1	3.3	i	0.665	4.6	0.5	3.8	COc1cccc(Nc2nc(N)c([N+](=O)[O-])c(NCc3ccccc3)n2)c1
nt	nt	i	nt	-1.7	5.1	nt	O=C1c2nccnc2C(=O)N1Cc1ccccc1
3.6	-2.9	nt	0.711	-5.0	-4.6	4.4	O=C(c1cccs1)N(CC1CCCO1)c1nc(-c2ccccc2)cs1 (stereo unspecified)
0.4	-8.2	i	0.649	0.6	-18.7	1.9	Cc1nc(SCC(=O)O)c(C#N)c2c1CCCC2
nt	nt	i	0.695	0.8	2.4	-20.3	C[C@]12c3[nH]c4cc(-c5ccco5)ccc4c3CCN1C(=O)[C@@H](CC(=O)NCc1ccco1)C[C@@H]2C(=O)N1CCOCC1
8.3	-70.6	i	0.659	-4.8	2.6	4.2	S=C(NCc1cccnc1)Nc1cccc2ccccc12
0.1	6.7	i	0.702	-5.8	-3.5	2.4	O=C(COC(=O)C1CC2C=CC1C2)Nc1ccccc1F (stereo unspecified)
2.8	-0.2	i	nt	-5.3	2.0	-0.4	C[C@@H](NC(=O)c1nc[nH]c1C(=O)NCc1ccccc1)c1ccccc1
-1.6	1.8	nt	0.805	-3.3	0.1	6.4	COC(=O)c1ccc(C2C(C(=O)c3cc4ccccc4o3)=C(O)C(=O)N2CCCN(C)C)cc1 (stereo unspecified)
-3.8	-6.4	i	0.665	6.0	-2.1	3.3	O=C(O)/C=C/C(=O)Nc1ccc(-n2ccc(C(F)(F)F)n2)cc1
2.7	-13.1	nt	0.72	-3.2	1.0	3.1	Cc1cc(NC(=O)COC(=O)c2cccc(S(=O)(=O)N3CCOCC3)c2)no1
-2.4	-4.8	i	0.693	-1.2	-4.4	1.0	Cc1ccccc1NC(=O)OCCN1CCN(Cc2ccccc2)CCC1=O

Next records.
LANA-H2B inh	ALR H2O2 inh	FGF22 binding	Ecoli growth	Beta2AR agonist	HNF4A DNA FP	UCH37 DUB inh	smiles
-5.1	28.6	nt	0.72	2.8	3.5	1.0	CCCCOC(=O)Cc1c(O)c2ccccc2[nH]c1=O
4.1	-42.5	nt	0.714	-3.5	4.9	-11.6	CCC(CC)COC(=O)C(C#N)c1nc2ccccc2nc1N1CCN(CC)CC1 (stereo unspecified)
0.8	-3.5	i	0.734	-1.6	-3.6	-0.8	CCn1c(CNC(=O)C2CCCCC2)cc2ccccc21
0.7	98.2*	nt	0.71	-4.7	2.4	3.4	CC1Cc2nc(SCC(=O)Nc3ccc(F)cc3)n(C)c(=O)c2S1 (stereo unspecified)
4.1	nt	i	0.719	1.7	-2.5	0.9	COC(=O)[C@]1(Cc2ccccc2)N[C@H](CN(C)S(=O)(=O)c2ccc(-c3ccccc3)cc2)[C@@H]2C(=O)N(C)C(=O)[C@@H]21
-1.2	-1.3	i	0.743	4.0	2.3	-15.9	Cc1cc(C)c(S(=O)(=O)Nc2ccccc2C(=O)OCC(=O)NCc2ccccc2)c(C)c1
-12.6	-2.2	i	0.757	0.1	-0.4	1.3	Cc1ccc2nc(-c3cccnc3)cc(C(=O)Nc3ccccc3[N+](=O)[O-])c2c1
4.0	-10.9	nt	0.744	-4.0	-4.1	3.6	COc1ccc(C(NC(C)=O)c2ccc3cccnc3c2O)c(OC)c1 (stereo unspecified)
5.9	0.3	i	0.675	0.8	-2.1	1.6	COc1cccc(CNC(=O)N2CCN(S(=O)(=O)c3ccc(C)cc3)CC2)c1
1.5	-12.9	i	0.686	4.0	2.3	-2.7	Cc1ccc(Cl)cc1NC(=O)C1CCCCC1C(=O)O (stereo unspecified)
4.5	-9.2	i	0.685	-7.5	3.0	1.0	O=C(CCN1CCN(S(=O)(=O)c2ccc(F)cc2)CC1)Nc1ccccc1F
-1.5	6.8	nt	0.707	3.8	2.2	3.3	O=C(Nc1ccccn1)c1ccc(C(=O)Nc2ccccn2)cc1
0.1	-8.6	nt	0.778	-2.4	0.2	3.5	O=C(CN(Cc1ccco1)C(=O)CNS(=O)(=O)c1ccc(F)cc1)NCCc1ccccc1
-1.6	-2.5	i	0.657	-5.7	4.8	-61.0	Cc1nnc(N2CCCC(C(=O)NCc3ccccc3F)C2)c2nn(-c3ccccc3)c(C)c12 (stereo unspecified)
-3.0	3.1	i	0.644	-0.1	-0.8	3.3	Clc1ccccc1CN1CCN(c2ncccn2)CC1
2.1	6.5	nt	0.709	-4.9	0.0	2.0	O=C(O)CCCC(=O)NCCc1ccncc1
1.1	-19.9	i	0.666	-0.1	1.5	4.0	COc1ccc(NC(=O)CN(C)C(=O)Cc2ccc(S(=O)(=O)N3CCOCC3)s2)cc1
-3.5	1.9	nt	0.759	11.8	1.2	5.6	Cc1cc(C)c(S(=O)(=O)c2ccccc2C)c(N(C)C)n1
-0.4	3.1	nt	0.741	-10.0	-1.5	3.5	CCOC(=O)c1sc(-c2ccccc2)cc1NC(=O)CSc1nnnn1C
nt	nt	i	0.65	nt	nt	-3.3	CC(=O)Nc1cccc(Cn2cccn2)c1
-6.3	16.9	+	0.698	3.2	-2.5	1.7	COc1ccc(NC(=O)/C=C/C(=O)O)c([N+](=O)[O-])c1
0.2	-17.3	nt	0.775	-4.8	0.9	-52.8	COc1ccc(CC(=O)N(Cc2cc3cc(OC)ccc3[nH]c2=O)C(C)C)cc1
-4.9	-3.5	i	0.698	7.3	-4.9	3.7	Cc1nc([N+](=O)[O-])cn1Cc1cccc2ccccc12
-7.5	3.9	i	0.701	-3.8	-6.1	2.6	CCOc1ccc(N2CC(C(=O)NCCc3c[nH]c4ccc(C)cc34)CC2=O)cc1 (stereo unspecified)
1.8	-0.8	i	0.682	-0.8	-1.2	0.5	Cc1cc(C)c2oc(C(=O)N(Cc3ccccc3)c3ccccn3)cc(=O)c2c1
3.3	-1.1	i	0.588	2.9	0.1	2.8	CCOC(=O)C1CCN(C/C=C/c2ccccc2[N+](=O)[O-])CC1
